StopGo reporter = FMDV 2A StopGo reporter, luciferase signal; human cells with a luciferase reporter of 2A StopGo recoding; control for the full effect not named in the record; Potency, µM (doses to about 57.9 µM), without a hit: at the top dose signal change, negative = less light; 1.2% of 410,000 active; AID 1159524; active = well fitted falling curve with a large enough effect; inconclusive = small, poorly fitted or top-dose-only effect; inactive = no such curve, though single readings can be large or run the other way; tested in HEK293T cells; also: % is scaled to controls: 0 for no effect and ±100 for the full control effect; nearly all actives have a fitted effect of over 45% in size; luciferase light after 4 h
RE007 growth inh = less growth of the S. pombe RE007 Vpr strain. S. pombe RE007 Vpr strain, BacTiter-Glo ATP luminescence, 24 h; control for the full effect not named in the record. Potency, µM (titrated, usually from 92.2 µM), without a hit: top-dose activity change, negative = less growth. 0.21% of 360,000 active; active = well fitted falling curve with a large enough effect; inconclusive = small, poorly fitted or top-dose-only effect; inactive = no such curve, though single readings can be large or run the other way;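 also: % is scaled to controls: 0 for no effect and ±100 for the full control effect; nearly all actives have a fitted effect of over 50% in size; the assay follows cell death caused by Vpr and the record does not say whether a fall means rescue or toxicity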
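Fission yeast RE007 carrying one integrated HIV-1 vpr copy, seeded at OD 0.01 in PMG+AL medium with 23 nL pinned compound. Grown 24 h at 30 degrees; viability read by BacTiter-Glo luminescence after 5 min.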
LASV entry inh = Lassa virus entry inhibition; Lassa virus pseudotype entry inhibition, cell reporter; control for the full effect not named in the record; Potency, µM (top dose mostly 37.9 µM), for the others: at the top dose activity change, negative = inhibition, usual class: inhibitors; 1.2% of 300,000 active; active means well fitted inhibition curve with a large enough effect; inconclusive means small, poorly fitted or top-dose-only effect, or effect the other way; inactive means flat fitted curve, though single readings scatter; tested in HEK293 cells; also: % is scaled to controls: 0 for no effect and ±100 for the full control effect; nearly all actives have a fitted effect of over 50% in size; luciferase read-out
Cruzain Triton = blocks cruzain activity in presence of Triton detergent; P25779; purified cruzain, Z-FR-AMC fluorescence, 0.01% Triton; Potency, µM, for inactives: max response, negative = inhibition, most hits filed as inhibitors; 0.43% of 200,000 active; AID 1478;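 also: plate controls were neutral wells for no effect and buffer without enzyme for full effect; nearly all actives have a fitted effect of over 40% in size; top concentration of the series not given in the record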
Target sequence (P25779 123-467 limits assumed): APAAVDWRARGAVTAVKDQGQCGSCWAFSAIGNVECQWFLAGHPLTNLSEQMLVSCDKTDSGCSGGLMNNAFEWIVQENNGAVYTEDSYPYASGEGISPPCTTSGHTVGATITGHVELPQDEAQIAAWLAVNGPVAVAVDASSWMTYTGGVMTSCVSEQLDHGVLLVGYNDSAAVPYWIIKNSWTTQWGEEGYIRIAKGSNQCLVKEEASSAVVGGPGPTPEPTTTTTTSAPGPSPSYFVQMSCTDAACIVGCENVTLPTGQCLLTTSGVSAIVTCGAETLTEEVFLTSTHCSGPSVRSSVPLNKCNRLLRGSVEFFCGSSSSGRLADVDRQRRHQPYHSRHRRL
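Read-out: AMC fluorescence (360 nm excitation, 450 nm emission), four reads over 2 min, first-to-third difference used. Conditions: cruzain 1.5 nM, Z-FR-AMC 2 uM, pH 5.5 acetate, 5 mM DTT, 0.01% Triton X-100.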
MARV entry inh = inhibitors of Marburg virus binding or cell entry; Marburg virus pseudotyped entry inhibition, cell reporter; control for the full effect not named in the record; about a third of the inactives were read at about 46 µM; Potency, µM (doses to about 37.8 µM), for the others: at the top dose activity change, negative = inhibition, actives largely listed as inhibitors; 1.8% of 300,000 active; active = well fitted inhibition curve with a large enough effect; inconclusive = small, poorly fitted or top-dose-only effect, or effect the other way; inactive = flat fitted curve, though single readings scatter; tested in HEK293 cells; about a fifth of its hits are not listed in these tables; also: % is scaled to controls: 0 for no effect and ±100 for the full control effect; luciferase read-out
Cruzain noTriton = blocks cruzain activity in detergent-free assay. 2.3% of 200,000 active. P25779. Potency, µM, for the others: max response, negative = inhibition, most hits filed as inhibitors. AID 1476. purified cruzain, Z-FR-AMC fluorescence, no detergent;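 also: plate controls were enzyme without inhibitor for no effect and buffer without enzyme for full effect; nearly all actives have a fitted effect of over 40% in size; top concentration of the series not given in the record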
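Purified cruzain at 1.5 nM, pre-incubated 15 min with compound at room temperature in 100 mM sodium acetate pH 5.5, 5 mM DTT, 0.00005% Triton X-100. Reaction started with 2 uM Z-FR-AMC; AMC fluorescence increase over 60 s gives rate.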
NS1 function inh = influenza NS1 inhibition | S. cerevisiae slowed by influenza A NS1, growth recovery by OD600 | Potency, µM (top dose mostly 46.1 µM), inactives show at the top dose activity, positive = more growth | 0.4% of 270,000 active; active means well fitted rising curve with a large enough effect; inconclusive means small, poorly fitted or top-dose-only effect; inactive means no such curve, though single readings can be large or run the other way; also: nearly all actives have a fitted effect of over 50% in size
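OD600 was taken as the measure of yeast growth restored by compound in an NS1-expressing S. cerevisiae strain. Cells had been washed out of glucose medium and diluted 1:100 into galactose -URA medium, pH 6.0.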
SARS PLP yeast = inhibitors of SARS-CoV papain-like protease in yeast. 0.19% of 330,000 active. Potency, µM (highest dose often 32.9 µM), for inactives: at the highest dose activity, positive = growth rescue. S. cerevisiae expressing SARS-CoV PLpro, growth rescue; control for the full effect not named in the record; active means well fitted rising curve with a large enough effect; inconclusive means small, poorly fitted or top-dose-only effect; inactive means no such curve, though single readings can be large or run the other way; also: 0% is about no effect; nearly all actives have a fitted effect of over 55% in size; growth read by luminescence after 48 h
* hit, by the source's call; ? = inconclusive; . = not tested or not shown; [ ] = remark or other dose. Unless noted, calls follow the shape of the dose curve; as a rule, active = well fitted curve in the direction sought with a large enough effect; inconclusive = small, poorly fitted or top-dose-only effect, or another doubt; inactive = no such curve, though single readings can be large; an effect the other way counts as inactive or inconclusive. Potency is read from the fitted curve at half-maximal effect.

Start of the listing, in advance:
1	O=C(CCCc1cccs1)Nc1nc(-c2ccc(F)cc2)cs1
2	CS(=O)(=O)c1ccc(C(=O)NCC2(N3CCOCC3)CCCCC2)cc1
3	O=C(NCCN1CCOCC1)c1ccncc1
4	Cn1c(Cl)c(C(=O)Nc2ccc(Cl)cc2)c2ccccc21
5	CCN(C(=O)COC(=O)/C=C/c1ccc(F)cc1)C1CCCCC1
6	COC(=O)c1ccc(NC(=O)C(=O)NCCc2csc(-c3ccc(C(F)(F)F)cc3)n2)cc1
7	COc1ccc(S(N)(=O)=O)cc1C(=O)NCC1(N2CCCCC2)CCCCC1
assay / entry	1	2	3	4	5	6	7
StopGo reporter	-20%	25%	-12%	33%[activator]	-18%	-12%	-13%
RE007 growth inh	-7%	4%	2%	-2%	9%	.	-6%
LASV entry inh	?	6%[46.1 µM]	?	-6%	9%[46.1 µM]	18%[46.1 µM]	?
Cruzain Triton	-3.3%	.	4.2%	-3.3%	.	-0.8%	-1.1%
MARV entry inh	?	1%[46.1 µM]	-3%	?	3%[46.1 µM]	.	?
Cruzain noTriton	-8%	.	6%	?	.	1%	-15%
NS1 function inh	21%	.	-7%	-4%	.	.	-2%
SARS PLP yeast	-6%	-15%	2%	-7%	-3%	.	0%

Results, previewed entries included:
1	O=C(CCCc1cccs1)Nc1nc(-c2ccc(F)cc2)cs1
2	CS(=O)(=O)c1ccc(C(=O)NCC2(N3CCOCC3)CCCCC2)cc1
3	O=C(NCCN1CCOCC1)c1ccncc1
4	Cn1c(Cl)c(C(=O)Nc2ccc(Cl)cc2)c2ccccc21
5	CCN(C(=O)COC(=O)/C=C/c1ccc(F)cc1)C1CCCCC1
6	COC(=O)c1ccc(NC(=O)C(=O)NCCc2csc(-c3ccc(C(F)(F)F)cc3)n2)cc1
7	COc1ccc(S(N)(=O)=O)cc1C(=O)NCC1(N2CCCCC2)CCCCC1
8	CC(C)CCn1nnc2sc(-c3ccccc3)cc2c1=O
assay / entry	1	2	3	4	5	6	7	8
StopGo reporter	-20%	25%	-12%	33%[activator]	-18%	-12%	-13%	49%[activator]
RE007 growth inh	-7%	4%	2%	-2%	9%	.	-6%	.
LASV entry inh	?	6%[46.1 µM]	?	-6%	9%[46.1 µM]	18%[46.1 µM]	?	?
Cruzain Triton	-3.3%	.	4.2%	-3.3%	.	-0.8%	-1.1%	-1.5%
MARV entry inh	?	1%[46.1 µM]	-3%	?	3%[46.1 µM]	.	?	?
Cruzain noTriton	-8%	.	6%	?	.	1%	-15%	3%
NS1 function inh	21%	.	-7%	-4%	.	.	-2%	.
SARS PLP yeast	-6%	-15%	2%	-7%	-3%	.	0%	.

9	Cc1nc(CNC(=O)C2CCC(=O)N(CCc3ccc(Cl)cc3)C2)sc1C (stereo unspecified)
10	O=C(COc1ccc(/C=N/NC(=O)c2cc3ccccc3o2)cc1Cl)Nc1ccccc1
11	CC1(C)CC(=O)C(C(C2=C(O)CC(C)(C)CC2=O)c2ccc(O)c([N+](=O)[O-])c2)=C(O)C1
12	O=c1[nH]nc(N/N=C/c2ccc(Cl)cc2Cl)c(=O)[nH]1
13	COc1ccc(C(=O)COC(=O)C(CCSC)NC(=O)COc2ccccc2)c(OC)c1 (stereo unspecified)
14	CC(C)C(c1nnnn1C1CCCC1)N1CCCCC1 (stereo unspecified)
15	COc1ccc(-c2nnc(SCc3cccnc3)o2)cc1
16	COC(=O)C(C)Sc1nc2c(c(-c3ccc(OC)cc3)c1C#N)-c1ccccc1C2=O (stereo unspecified)
assay / entry	9	10	11	12	13	14	15	16
StopGo reporter	-12%	-69%	-24%	12%	21%	-22%	38%[activator]	-17%
RE007 growth inh	-11%	2%	-1%	9%	-9%	6%	-19%	1%[3.69 µM]
LASV entry inh	-10%	8.9µM*	24%[46.1 µM]	.	?	11%	?	?
Cruzain Triton	.	22µM*	.	.	.	6.4%	-5.1%	.
MARV entry inh	-20%	?	-1%	.	-1%[46.1 µM]	-12%[46.1 µM]	26%[46.1 µM]	-29%
Cruzain noTriton	.	20µM*	.	.	.	-1%	15%	.
NS1 function inh	-3%	7%	-8%	7%	-20%	11%	6%	.
SARS PLP yeast	7%	-3%	10%	-1%	2%	7%	0%	.

17	COc1cc2c(cc1OC)C(c1ccccc1[N+](=O)[O-])N(C(C)=O)CC2 (stereo unspecified)
18	O=C(NCc1cccnc1)Nc1ccccc1C(F)(F)F
19	CC(=O)c1ccc(N2C(=O)[C@@H]3C(C(=O)CCN4C(=O)c5ccccc5C4=O)=NN[C@@H]3C2=O)cc1
20	O=C(O)c1ccc([N+](=O)[O-])c(CS(=O)(=O)c2ccccc2)c1
21	Cc1ccc2cc3cc(C(=O)NCCCN4CCCCCC4)oc3nc2c1
22	Cc1nc2c(sc3nc4c(cc32)COC(C)(C)C4)c(=O)n1Cc1ccccc1
23	Cc1cc(C)c(C(N)=O)c(Nc2cccc(Cl)c2)n1
24	Cc1ccc(C(=O)NC(C)c2ccc(-n3ccnc3)cc2)cc1 (stereo unspecified)
assay / entry	17	18	19	20	21	22	23	24
StopGo reporter	-8%	-6%	-15%	-13%	-12%	?	.	1%
RE007 growth inh	18%	3%	-7%	2%	?	-1%	-14%	-5%
LASV entry inh	1%[46.1 µM]	.	1%	-12%	-1%	2%	0%	6%
Cruzain Triton	.	.	-2.9%	.	?	-4.3%	-4.0%	.
MARV entry inh	?	.	?	7%	-3%[46.1 µM]	-3%	-2%	2%[46.1 µM]
Cruzain noTriton	.	.	-7%	.	-18%	?	-5%	.
NS1 function inh	3%	-3%	?	3%	5%	9%	-8%	9%
SARS PLP yeast	1%	0%	14%	0%	-1%	-1%[6.58 µM]	8%	7%

2 entries picked at random from those above:
16	COC(=O)C(C)Sc1nc2c(c(-c3ccc(OC)cc3)c1C#N)-c1ccccc1C2=O (stereo unspecified)
23	Cc1cc(C)c(C(N)=O)c(Nc2cccc(Cl)c2)n1
assay / entry	16	23
StopGo reporter	-17%	.
RE007 growth inh	1%[3.69 µM]	-14%
LASV entry inh	?	0%
Cruzain Triton	.	-4.0%
MARV entry inh	-29%	-2%
Cruzain noTriton	.	-5%
NS1 function inh	.	-8%
SARS PLP yeast	.	8%

More results follow:
25	Cc1ccc(C)n1-c1ccc(C(=O)N2CCC(C(N)=O)CC2)cc1
26	Cc1ccc(NC(=O)Cn2ccc(=O)[nH]c2=O)cc1
27	COC(=O)c1cc2oc3ccccc3c2n1Cc1ccc(Cl)cc1
28	CCOC(=O)N1CCN(C(=O)CSc2nnc(-c3cc(OC)ccc3OC)o2)CC1
29	COc1cccc(N/C(N)=N/c2nc(C)cc(=O)[nH]2)c1
30	O=C(N/N=C/c1ccc(OC(F)F)cc1OC(F)F)c1cccc(S(=O)(=O)N2CCOCC2)c1
31	Cc1ccc(OCC(=O)Nc2ccc3c(c2)nc(CCN2CCCCC2)n3C)cc1
32	COc1cccc(N2CCN(CC(=O)NC(=O)NCc3ccco3)CC2)c1
assay / entry	25	26	27	28	29	30	31	32
StopGo reporter	0%	31%[activator]	9%	?	8%	?	-15%	-6%
RE007 growth inh	-26%	0%	.	-15%	3%	15%	-1%	-20%
LASV entry inh	?	0%	.	-8%	.	1%	.	-10%
Cruzain Triton	.	.	-2.9%	-1.1%	.	.	.	.
MARV entry inh	-27%[46.1 µM]	18%[46.1 µM]	?	?	.	-5%	.	?
Cruzain noTriton	.	.	-8%	15%	.	.	.	.
NS1 function inh	.	-16%	.	2%	-2%	.	-1%	.
SARS PLP yeast	-4%	-2%	.	-22%	-3%	1%	0%	-4%

Taken from above.
Entry of Cn1c(Cl)c(C(=O)Nc2ccc(Cl)cc2)c2ccccc21 under NS1 function inh: -4%
Entry of Cc1ccc(C)n1-c1ccc(C(=O)N2CCC(C(N)=O)CC2)cc1 under MARV entry inh: -27%[46.1 µM]
